# VACV E9 pol inh – inhibitors of vaccinia virus processive DNA synthesis (E9 polymerase); in vitro processive DNA synthesis, absorbance read-out; active compounds read low; some inactives read as strong as hits; hit rate 0.94% among 46,000; AID 493162; normalized absorbance, % (no concentration beside the values);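 active = replicate mean up to 90% and picked by the depositor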;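 also: 100% = median of the test wells of a plate; 100 nL library stock went into each well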
# Starred values were filed as active, the others as inactive; & = joins results of further samples.
Structure	VACV E9 pol inh
N#CC1=C(N)OC2=C(CCCC2=O)C1c1ccccc1C(F)(F)F (stereo unspecified)	100.3
c1ccc(CN(Cc2ccccc2)c2ncnc3nc[nH]c23)cc1	98.5
NC(=O)c1c(/N=C/C(Br)=C/c2ccccc2)sc2c1CCC2	102.4
COC(=O)C1=C(C)NC(C)=C(C(=O)OC)C1c1ccc(C(C)C)cc1	99.7
Cc1c(C)c(C)c(C#CCOC2CCCCO2)c(C)c1C (stereo unspecified)	101.9
O=c1nc(-c2ccccc2)c2cc(Cl)ccc2[nH]1	99.7&99.0
O=C(CCCc1nc(-c2ccccc2)no1)NC1CCCC1	111.3
COc1ccc(-n2c(=O)c(C#N)cc3c(=O)n4ccccc4nc32)cc1Cl	101.5
CCN1CCN(C(=O)c2csc3c2CCCCC3)CC1	101.8
CCc1nc2sc(C(=O)Nc3ccc(OC(F)(F)F)cc3)c(N)c2cc1C	100.3
O=C(O)C1(NS(=O)(=O)c2ccc(Cl)cc2)CCCCC1	100.4
O=C(COC(=O)C12CC3CC(CC(C3)C1)C2)NCc1ccco1	102.4
COc1ccc2ncc3c(c2c1)-c1cc(Cl)ccc1OC3	98.9
Clc1ccc(CNC2CN3CCC2CC3)cc1 (stereo unspecified)	103.0
CN(C)Cc1c(O)ccc2cc(-c3nc4ccccc4o3)c(=O)oc12	101.2
C/C(=N/O)C1C(=O)c2ccccc2C1=O	93.3
O=C(COC(=O)c1cc(F)c(F)cc1Cl)NC1CC1	98.7
O=C(NCc1cccs1)c1csc(Cc2c(Cl)cccc2Cl)n1	99.4
CCCN1C2=NCCCN2c2ccccc21	107.5
Cc1ccnc(NS(=O)(=O)c2ccc(N)cc2)n1	100.5
NCCCCC(N)C(=O)NCC(=O)NC(Cc1cnc[nH]1)C(=O)NC(CCCCN)C(=O)O (stereo unspecified)	100.8
N#CCNC(=O)c1ccc(Br)cc1	100.6
O=C(O)CC1(CC(=O)Nc2cccnc2)CCCC1	99.7
Nc1cccc(Nc2ncnc3ccccc23)c1	94.1
O=C(O)c1ccc2c(c1)N(Cc1ccc(F)cc1)C(=O)/C(=C\c1ccccc1)S2	57.2*
Cc1cc(C)c(NC(=O)CCNC2CCCCC2)c(C)c1	98.0
Nn1cc(-c2ccccc2)nn1	99.9
CCOc1ccc(OCC)c(S(=O)(=O)NCc2ccco2)c1	86.4
COc1ccc(CNC2C3CC4CC(C3)CC2C4)c(OC)c1C (stereo unspecified)	99.4
Nc1c2c(nc3ccccc13)CCCC2	99.8
Cc1ccc(C(=O)OCC(=O)Nc2ccc(Cl)c(Cl)c2)s1	99.0
CC(Oc1ccccc1)C(=O)O (stereo unspecified)	99.8
COc1ccc(/C=N/c2nc3ccccc3n2Cc2ccc(Cl)cc2)cc1OC	99.2
Nn1c2ccccc2n2cc(-c3ccccc3)nc12	102.0
c1ccc(Nc2cc(-c3ccccc3)[nH]n2)cc1	104.2
Cc1cc(Nc2ccccc2)nc(Nc2ccccc2)n1	100.0

# Reprinted from the entries so far, 32 compounds:
Structure	VACV E9 pol inh
c1ccc(CN(Cc2ccccc2)c2ncnc3nc[nH]c23)cc1	98.5
NC(=O)c1c(/N=C/C(Br)=C/c2ccccc2)sc2c1CCC2	102.4
COC(=O)C1=C(C)NC(C)=C(C(=O)OC)C1c1ccc(C(C)C)cc1	99.7
Cc1c(C)c(C)c(C#CCOC2CCCCO2)c(C)c1C (stereo unspecified)	101.9
O=c1nc(-c2ccccc2)c2cc(Cl)ccc2[nH]1	99.7&99.0
O=C(CCCc1nc(-c2ccccc2)no1)NC1CCCC1	111.3
COc1ccc(-n2c(=O)c(C#N)cc3c(=O)n4ccccc4nc32)cc1Cl	101.5
CCN1CCN(C(=O)c2csc3c2CCCCC3)CC1	101.8
CCc1nc2sc(C(=O)Nc3ccc(OC(F)(F)F)cc3)c(N)c2cc1C	100.3
O=C(O)C1(NS(=O)(=O)c2ccc(Cl)cc2)CCCCC1	100.4
O=C(COC(=O)C12CC3CC(CC(C3)C1)C2)NCc1ccco1	102.4
COc1ccc2ncc3c(c2c1)-c1cc(Cl)ccc1OC3	98.9
Clc1ccc(CNC2CN3CCC2CC3)cc1 (stereo unspecified)	103.0
CN(C)Cc1c(O)ccc2cc(-c3nc4ccccc4o3)c(=O)oc12	101.2
C/C(=N/O)C1C(=O)c2ccccc2C1=O	93.3
O=C(COC(=O)c1cc(F)c(F)cc1Cl)NC1CC1	98.7
O=C(NCc1cccs1)c1csc(Cc2c(Cl)cccc2Cl)n1	99.4
CCCN1C2=NCCCN2c2ccccc21	107.5
Cc1ccnc(NS(=O)(=O)c2ccc(N)cc2)n1	100.5
NCCCCC(N)C(=O)NCC(=O)NC(Cc1cnc[nH]1)C(=O)NC(CCCCN)C(=O)O (stereo unspecified)	100.8
N#CCNC(=O)c1ccc(Br)cc1	100.6
O=C(O)CC1(CC(=O)Nc2cccnc2)CCCC1	99.7
Nc1cccc(Nc2ncnc3ccccc23)c1	94.1
O=C(O)c1ccc2c(c1)N(Cc1ccc(F)cc1)C(=O)/C(=C\c1ccccc1)S2	57.2*
Cc1cc(C)c(NC(=O)CCNC2CCCCC2)c(C)c1	98.0
Nn1cc(-c2ccccc2)nn1	99.9
CCOc1ccc(OCC)c(S(=O)(=O)NCc2ccco2)c1	86.4
COc1ccc(CNC2C3CC4CC(C3)CC2C4)c(OC)c1C (stereo unspecified)	99.4
Nc1c2c(nc3ccccc13)CCCC2	99.8
Cc1ccc(C(=O)OCC(=O)Nc2ccc(Cl)c(Cl)c2)s1	99.0
CC(Oc1ccccc1)C(=O)O (stereo unspecified)	99.8
COc1ccc(/C=N/c2nc3ccccc3n2Cc2ccc(Cl)cc2)cc1OC	99.2

# Continued.
Structure	VACV E9 pol inh
N/C(=N/O)c1ccccc1N	93.2
Cn1c(NC(=O)c2ccccc2NC(=O)c2ccccc2)nc2ccccc21	99.1
CC(C)(C)OC(=O)N1CCC(CNS(=O)(=O)c2cccc(C(F)(F)F)c2)CC1	98.2
Cn1c(CCCNC(=O)C(C)(C)C)nc2ccccc21	98.7
COc1cc(Cl)c(C)cc1NC(=O)COC(=O)C(C)C	96.9
COc1ccc(Nc2cc(C(=O)NCCCN3CCCC3)c3ccccc3n2)cc1	92.9
COc1ccc(Cl)cc1-n1c(C)nc2cc(C(=O)NCC(OC)OC)ccc21	106.1
CCN1C(=O)c2ccccc2S(=O)(=O)c2ccc(C(=O)NCCN3CCCCCC3)cc21	99.8
O=C(CSc1nccn1-c1ccccc1)NCc1ccccc1	101.4
Oc1ccc(CNCC2NCCc3ccccc32)cc1Cl (stereo unspecified)	98.3
Cc1ccc(Oc2coc3cc(OCC(=O)N4CCCCC4)ccc3c2=O)cc1	100.0
Cc1ccc(-c2csc(NC(=O)c3ccccc3F)n2)cc1C	99.9
OC(CNC1Cc2ccccc2C1)COc1ccc(F)cc1 (stereo unspecified)	104.5
O=C(Cc1c(Cl)cccc1Cl)OCC(=O)c1cc2ccccc2o1	103.9
O=C(c1cccs1)N1CCc2ccccc21	92.2
CCOc1ccc(Cc2nc(C)c(CC(=O)N3CCOCC3)c(=O)[nH]2)cc1	100.2
CCn1cc(C(=O)O)c2ccccc21	114.5
C=CS(=O)(=O)c1ccc(OC)c(N)c1	100.5
CCOC(=O)c1cnc2c(-c3ccccc3)cnn2c1C	100.4
FC(F)(F)c1cccc(-n2c(Cn3nnc(N4CCOCC4)n3)n[nH]c2=S)c1	109.1
COc1cc(C(F)(F)F)cc(C(F)(F)F)c1C(=O)N1CCC(C(=O)c2ccc(Cl)cc2)CC1	101.2
CN(C(=S)NC(=O)c1ccccc1)c1ccc(OC(F)(F)F)cc1	97.1
Cc1ccc(S(=O)(=O)N2CCN(S(=O)(=O)c3ccc(C)cc3)C2)cc1	100.3
OCCC12CC3CC(C1)CC(CCO)(C3)C2	106.5
N#CCn1c(=O)n(Cc2ccccc2)c(=O)c2cccnc21	83.0
CN(C)S(=O)(=O)c1ccc(C(=O)NCc2ccc3[nH]c4c(c3c2)CCCC4)cc1	90.2
S=c1sscc1-c1ccccc1	99.7
CCCN(CCC)C(=O)c1cc2c(n(-c3ccc(Cl)c(Cl)c3)c1=O)CC(C)(C)CC2=O	99.8
CC1(C)CC(NC(=O)c2ccc(C(=O)c3ccccc3)o2)CC(C)(C)N1	99.9
ClCc1nnc(-c2ccccc2)o1	102.4
CC[C@@]1(O)C(=O)OCc2c1cc1n(c2=O)-c2cc3ccccc3nc2C1	98.6
CCOc1ccc(/C=N/n2c(C)nc3ccccc3c2=O)cc1	96.2
CSc1nc2ccc3nc(NC(=O)c4ccccc4Cl)sc3c2s1	100.0
c1ccc2c(Oc3ccc4c(c3)OCO4)nncc2c1	99.1
CCOC(=O)C1CCN(S(=O)(=O)c2ccc3c(c2)SCC(=O)N3)CC1	105.3
CCn1c(=NC(=O)c2ccc(S(=O)(=O)N(C)C)cc2)sc2ccccc21	97.3
COc1ccc(/C=C/C(=O)N2CCN(C(c3ccccc3)c3ccccc3)CC2)cc1OC	98.3
O=C(NCc1ccccc1)C1CCC(Cn2c(=S)[nH]c3ccccc3c2=O)CC1 (stereo unspecified)	92.3
COc1ccc(CCC(O)C2(O)CCCCC2)cc1 (stereo unspecified)	98.9
N/C(=N/c1nc2ccccc2o1)NC(=O)Nc1ccc(Cl)c(Cl)c1	99.7
CCCCn1c(C(C)NC(=O)CC)nc2ccccc21 (stereo unspecified)	84.8
COc1ccccc1/C=C/C1=NC(=C\c2ccc3c(c2)OCO3)/C(=O)O1	99.8
Cc1ccc(C)c(Cc2c(C)nc3c(C(=O)NC4CC4)cnn3c2C)c1	97.6
CC1=CC2=NC(=O)/C(=C\c3ccco3)C(=N)N2O1	93.2
CCOC(=O)c1cn(C)c(=O)c2ccccc12	101.4
CCc1ccc(-c2ccc(C#N)cc2)nc1	103.9
CC(=O)Oc1cc2oc(=O)cc(-c3ccccc3)c2cc1Cl	100.0
Cc1c(Cl)cccc1NC(=O)CSc1nccn1C	97.7
CCN1c2ccccc2NC1SCC(=O)Nc1ccc(Cl)cc1 (stereo unspecified)	100.3
COC(=O)c1ccc(C=Nc2ccc3oc(-c4cccc(OC)c4)nc3c2)cc1	100.0
O=S1(=O)CCC(SCc2nc3ccccn3c2Br)C1 (stereo unspecified)	89.2
CCOC(=O)c1cc(C(C)(C)C)nc(OC(=O)N(C)C)c1C#N	95.2
Cc1cc(C)n(-c2ncnc3scc(-c4ccccc4)c23)n1	99.4
COc1ccccc1Nc1ncc(C(=O)N(C)c2ccc(Cl)cc2)c2ccccc12	96.8
CCOc1cc(/C=C2/SC(=Nc3ccccc3C(F)(F)F)NC2=O)ccc1O	120.6
CCOC(=O)c1c(NC(=O)C2C(C)(C)C2(C)C)sc2c1CCC2	98.1
CCN(CC)CCN=Cc1c(O)n(-c2ccccc2Cl)c(=O)c2ccccc12	103.1
CCSc1ncnc2c1c(-c1ccccc1)cn2-c1cccc(F)c1	97.4
CC1(C)CC(=O)C2=C(C1)N(Cc1ccco1)C(=O)NC2(C(F)(F)F)C(F)(F)F	106.7
O=c1cc(CO)oc(C(Nc2nccs2)c2ccc(F)cc2)c1O (stereo unspecified)	100.8

# (more compounds)
Structure	VACV E9 pol inh
CCN(CCO)c1ccccc1	101.3
O=C(COC(=O)/C=C/c1cccs1)Nc1ccccc1	103.1
COc1cccc(NC(=O)Cn2c(C)cc(C)c(C#N)c2=O)c1	100.7
CC(NS(=O)(=O)c1ccccc1)C(c1cccs1)N1CCOCC1 (stereo unspecified)	98.2
O=C(NC1C2CC3CC(C2)CC1C3)c1cccnc1Cl (stereo unspecified)	112.2
CC(C)(C)c1cc(CCC(=O)NN)cc(C(C)(C)C)c1O	99.3
O=c1oc2ccc(Cl)cc2c(=O)n1-c1cccc(C(F)(F)F)c1	100.3
NC(CO)(CO)COCc1ccccc1	100.1
Fc1ccc(CN2CCN(Cc3ccccc3)CC2)cc1	97.8
Clc1ccc(Nc2ncnc3c2cnn3-c2ccccc2)cc1	100.2
CS(=O)(=O)c1ccc2nc(NC(=O)C3CC3)sc2c1	99.2
Cc1[nH]c2ccccc2c1CN1CCN(c2ccc(F)cc2)CC1	112.5
CNS(=O)(=O)c1ccc2oc3ccc(S(=O)(=O)NC)cc3c2c1	99.9
O=c1[nH]c2ccc(Cl)cc2c(-c2ccccc2)c1N1CCCC1	97.0
COc1ccc(CCNC(=O)c2ccc3c(=O)n(CC4CCCO4)c(=S)[nH]c3c2)cc1OC (stereo unspecified)	92.5
COc1cccc(-n2nnnc2S(=O)(=O)Cc2ccccc2)c1	101.4
CC(C)Oc1ccc(-c2nn(-c3ccccc3)cc2/C=C(\C#N)S(=O)(=O)c2ccccc2)cc1	98.9
CCCCN1CCc2c([nH]c3c(C)cccc23)C1=O	100.3
Cc1cc(=O)oc2cc(OCc3ccccc3F)ccc12	100.7
COc1ccccc1C(=O)CSc1ccccn1	106.4
Cc1nc2c3ccccc3nc(NN3C(=O)CCC3=O)n2n1	102.0
Cc1c(C=C2C(=O)c3ccccc3C2=O)cc(C#N)n1C	98.9
COc1ccc(NC(=O)c2sc3nc(C)nc(N(C)c4ccc(C(C)C)cc4)c3c2C)c(OC)c1	91.7
O=C(O)CSc1c2c(nc3cc(C(=O)Nc4cccc(C(F)(F)F)c4)ccc13)CCCC2	105.5
O=C1O/C(=C\C=C\c2ccccc2)c2ccccc21	83.1

# High-throughput results (PubChem)

# These rows are one share of the data; count on the stated rates, not on these rows.
